ALR inh: inhibitors of human sulfhydryl oxidase ALR | purified ALR, DTT oxidation, H2O2 HRP-luminol luminescence | inhibition, % (no concentration beside the values) | P55789 | 290,000 compounds, 3.8% hits;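 active = mean and each replicate at 75% or more; inconclusive = only one of the two met; inactive = neither met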;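 also: stock transfer was 7.5 nL into about 7.5 µL; 0% = neutral wells and 100% = wells with inactivated enzyme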
Target sequence (P55789 whole entry, looked up): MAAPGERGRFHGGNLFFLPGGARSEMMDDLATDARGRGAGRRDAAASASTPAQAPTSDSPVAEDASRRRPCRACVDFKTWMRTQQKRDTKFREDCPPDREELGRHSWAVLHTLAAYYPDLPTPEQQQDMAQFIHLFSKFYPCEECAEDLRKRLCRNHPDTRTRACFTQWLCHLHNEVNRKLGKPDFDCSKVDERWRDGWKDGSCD
Calb FLC: affects C. albicans growth with fluconazole | C. albicans CaCi-2 (fluconazole-resistant clinical isolate) + fluconazole, Alamar Blue growth, 48 h | growth inhibition, % (test concentration not listed) | 300,000 compounds, 0.57% hits | AID 1979;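 active = most replicates above 75%; inconclusive = exactly half above 75%; inactive = most below 75%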;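 also: all wells also contain fluconazole at 8 µg/ml as a sub-toxic cotreatment; 0% = median of DMSO wells and 100% = median of geldanamycin control wells; wells of about 8 µL received 7.5 nL stock; the first replicate is given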
RanGTP-Impb inh: inhibitors of RanGTP-importin-beta interaction, primary screen, biochemical, FRET, CFP-Ran, YFP-importin-beta, homogeneous. cell-free CFP-Ran/YFP-importin-beta FRET ratio. inhibition, % (concentration not given with the values). 300,000 compounds, 1.1% hits. AID 2216;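 active = most replicates above 15%; inconclusive = exactly half above 15%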;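 also: 0% = DMSO wells and 100% = Ran loaded with GDP instead of GTP; wells of about 40 µL received 100 nL stock; the first replicate is given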
T cruzi repl: T. cruzi replication inhibition | T. cruzi beta-gal in NIH3T3, luminescence, 90 h | inhibition, % (no concentration beside the values) | 300,000 compounds, 1.4% hits | AID 1885;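 active = mean inhibition across valid replicates above about 55%, limit read from the data; inconclusive = mean below that limit but half or more replicates reach it; inactive = mean below it, under half of replicates reach it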;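 also: signal also drops with host cell toxicity which is not excluded here; 0% = plate median of DMSO wells and 100% = zero luminescence signal; higher percent means less beta-gal luminescence so fewer parasites; stock transfer was 50 nL into about 50 µL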
Beta apoptosis: beta cell apoptosis inhibition; INS-1E cytokine-induced death, ATP luminescence, 48 h; percent of positive-control rescue, neutral wells zero; protection from apoptosis, % (no concentration beside the values); 300,000 compounds, 0.8% hits;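 active = all replicates at 75% or more, or half of them and the mean; inconclusive = half reach 75% but not the mean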;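 also: 0% = cytokine-treated negative control wells and 100% = positive control rescue; higher means more ATP so stronger rescue from cytokine killing; wells of about 40 µL received 100 nL stock; the first replicate is given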
MLL AF4-AF9 inh: blocks AF4 peptide binding to human AF9; inhibition, % at 10 µM; P42568; 350,000 compounds, 0.47% hits; AlphaScreen, biotin-AF4 peptide binding to FLAG-AF9;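 active = every replicate reaching a set inhibition limit, whatever the replicate mean, cut at about 25% in these data; inconclusive = mean inhibition reaches that limit but some replicates miss it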;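 also: 0% = plate neutral control median and 100% = total signal loss; the record names both 10 and 1 µM as test concentration; the first replicate is given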
Target sequence (P42568 whole entry, looked up): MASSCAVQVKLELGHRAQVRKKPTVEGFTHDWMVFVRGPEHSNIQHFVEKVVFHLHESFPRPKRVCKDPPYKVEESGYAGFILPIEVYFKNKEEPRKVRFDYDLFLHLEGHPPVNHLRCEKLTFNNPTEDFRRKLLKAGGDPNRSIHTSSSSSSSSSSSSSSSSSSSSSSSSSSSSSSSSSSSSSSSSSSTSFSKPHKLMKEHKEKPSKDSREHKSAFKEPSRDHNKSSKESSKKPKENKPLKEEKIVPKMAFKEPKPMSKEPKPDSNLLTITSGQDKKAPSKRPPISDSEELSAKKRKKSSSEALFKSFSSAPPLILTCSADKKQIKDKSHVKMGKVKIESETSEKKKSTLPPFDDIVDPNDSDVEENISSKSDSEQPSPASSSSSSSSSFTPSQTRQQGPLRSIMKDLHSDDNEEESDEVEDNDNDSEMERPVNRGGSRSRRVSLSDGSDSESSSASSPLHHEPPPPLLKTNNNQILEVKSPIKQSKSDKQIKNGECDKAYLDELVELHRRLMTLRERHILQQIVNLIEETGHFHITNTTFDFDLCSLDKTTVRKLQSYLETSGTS
rRNA inh HTS: selective bacterial rRNA inhibition in E. coli. 350,000 compounds, 1.6% hits. E. coli WT GFP vs humanized-ribosome RFP mutants, fluorescence, 24 h; hits give low values; DMSO median 0, no signal -100. GFP signal change (wild-type ribosome), % (no concentration beside the values);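 active = significant combined selectivity score with lowered wild-type GFP, culture density cut under 30%, mutant RFP and density less affected; inactive = any of these conditions unmet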; also: one replicate is shown; some compounds called inactive have numbers as strong as hits
FGF22 binding: binders of recombinant human FGF22 by thermal shift; Q9HCT0; calls only at 9.99 µM; 340,000 compounds, 1.5% hits; SYPRO orange fluorescence; percent of sucrose octasulfate shift, DMSO zero; AID 651658;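 active = melting point raised past a set limit in the mean and every replicate; inconclusive = no clear call; three in four hits are not shown here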
Target sequence (Q9HCT0 whole entry, looked up): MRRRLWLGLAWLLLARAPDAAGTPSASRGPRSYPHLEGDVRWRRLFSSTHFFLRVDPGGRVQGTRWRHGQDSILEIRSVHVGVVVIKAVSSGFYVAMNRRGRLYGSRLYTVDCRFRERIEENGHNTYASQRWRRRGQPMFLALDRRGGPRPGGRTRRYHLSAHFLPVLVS
rRNA inh HTS OD600: further read-out of rRNA inh HTS, marked with its call; OD600 change, %; measured here: OD600 growth;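 optical density of the mix in the first replicate; 0 = DMSO median and -100 = no signal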
rRNA inh HTS RFP: further read-out of rRNA inh HTS, marked with its call; RFP signal change, %; measured here: RFP humanized mutant strains;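 first replicate; 0 = DMSO median and -100 = no signal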
Starred values were filed as active, the others as inactive; i = inactive; ? = inconclusive; / = no result given. The list is partial. The share of hits here may be higher or lower than overall.

SMILES	ALR inh	Calb FLC	RanGTP-Impb inh	T cruzi repl	Beta apoptosis	MLL AF4-AF9 inh	rRNA inh HTS	rRNA inh HTS OD600	rRNA inh HTS RFP	FGF22 binding
COc1ccc(C(CC(=O)O)NC(=O)c2ccccc2[N+](=O)[O-])cc1 (centres undefined)	-1	7	?	-3	-3	-5.1	6	11	1.4	i
CCN1CCN(c2cc(C(C)C)nc3c(-c4ccccc4)c(C)nn23)CC1	-2	-3	-2.2	6	3	1.9	-19	-27	-5.2	i
CCOc1ccc(-c2nnn(CC(=O)N3CCN(c4ccc(F)cc4)CC3)n2)cc1OCC	25	-8	2.8	-4	-2	/	/	/	/	/
O=C(CC1CC2CCC1C2)N1CCN(S(=O)(=O)c2ccccc2C(F)(F)F)CC1 (centres undefined)	-16	/	/	/	-1	-7.1	-27	-55	-2.1	i
O=C1OCCC1Sc1nnc(-c2ccc3c(c2)OCO3)o1 (centres undefined)	-5	10	0.9	-6	2	-10	0	11	-2.3	i
C=CCn1c(COc2ccccc2)nnc1SCC(=O)N/N=C/c1cc(Cl)ccc1O	-30	-3	-0.5	-8	-10	/	/	/	/	/
CC(NC(=O)c1ccc(Br)s1)C1CCCO1 (centres undefined)	-8	0	5.3	-13	1	-1.8	1	-6	2.5	i
Cc1cc(OCC(=O)O)c2ccccc2n1	-31	1	-1.4	7	-5	/	/	/	/	/
CN1CCN(CCCNC(=O)c2ccc(/C=C3/Sc4ccccc4N(Cc4cccc(Cl)c4)C3=O)cc2)CC1	/	20	3.7	58*	/	27*	-50	-43	-16	i
CCN=C1SC(C(=O)Nc2cccc(OCC)c2)CC(=O)N1CC (centres undefined)	-1	13	2.3	4	-6	/	/	/	/	/
Cc1cc(=O)[nH]c2n[nH]c(-c3ccccc3)c12	4	-2	4.7	18	0	/	/	/	/	/
COc1cc(C(=O)Nc2c(C)cc(C)cc2C)c(-n2cnnn2)cc1OC	-6	9	0.6	19	2	/	/	/	/	/
O=C(CCCNS(=O)(=O)c1ccc(Cl)c(Cl)c1)NCCc1ccccn1	0	16	-1.6	-8	-6	-1.2	8	-6	3.1	i
N/C(=N\OC(=O)c1ccc(Cl)c([N+](=O)[O-])c1)c1ccccn1	5	41	-2.5	3	-1	1.2	-14	-5	-6.5	i
COc1ccc(NS(=O)(=O)c2ccc(O)c(C(=O)OCC(=O)Nc3ccc4c(c3)OCCO4)c2)cc1	0	-8	-1.8	-1	/	/	/	/	/	/
CC(C)OC(=O)CSc1nnc(CNc2cccc(Cl)c2)n1C	8	8	-0.2	1	1	/	/	/	/	/
CCOCC(=O)Nc1nnc(COCC)s1	-2	-1	-0.3	-14	-6	/	/	/	/	/
CSc1nnc2c(n1)OC1(Nc3ccccc3-2)C(=O)Nc2ccccc21 (centres undefined)	/	7	-1.5	-4	-3	-2.6	0	-5	-7.3	i
CC(=O)N1c2ccc(S(=O)(=O)N3CCCCC3)cc2CC1C(=O)Nc1cccc(C)c1 (centres undefined)	-2	-6	0.4	-4	-1	1.6	-3	-10	3.7	i
Cc1ccc(C)c(N2CCN(C(=O)CCc3nc4ccccc4[nH]3)CC2)c1	-5	-1	1.1	9	4	2.7	3	-23	-6.7	i
Cc1cccc(Nc2nnc(SCC3CCCCO3)s2)c1 (centres undefined)	-3	14	0.3	2	-9	1.1	-29	-56	3.2	i
C=CCc1ccccc1OCC(O)CN1CCN(C(=O)OCC)CC1 (centres undefined)	-2	-28	-1.7	-6	2	/	/	/	/	/
CCC(C)N1CCN(C(=O)c2cc(OC)cc(OC)c2)CC1 (centres undefined)	1	-8	3.6	32	/	-6.7	18	25	3.9	i
Cc1ccc(CNC(=O)c2cc(S(=O)(=O)N3CCCCC3)ccc2N2CCOCC2)cc1	-12	/	/	/	4	1.0	-12	1	-2.5	i
COc1ccc(Cl)c(Cn2c(NCC(C)O)nc3c2c(=O)n(C)c(=O)n3C)c1 (centres undefined)	7	-14	-3.6	-13	-3	/	/	/	/	/
CNC(=O)C1CCN(S(=O)(=O)c2c(C)noc2/C=C/c2ccc(C)cc2)CC1	-3	-5	-0.3	-6	4	-4.0	-4	5	-2.9	i
COc1nc(N)c(S(=O)(=O)c2ccccc2)cc1C#N	-30	22	12	-11	5	/	/	/	/	/
Cc1cccc(N2CCN(C(=O)C(C)C)CC2)c1C	2	-4	-1.7	-22	3	/	/	/	/	/
O=C(COC(=O)[C@H](Cc1ccccc1)NC(=O)c1cccs1)Nc1c(Cl)cccc1Cl	-10	-16	1.8	-9	-7	/	/	/	/	/
COc1cc([N+](=O)[O-])cc(/C=N/NC(=O)Cn2cncn2)c1O	-3	9	-7.2	3	-11	-3.7	1	5	5.0	i
COc1ccc(N(C)C(=O)c2cc3c(s2)-c2ccccc2OC3)c(OC)c1	-2	-5	-1.7	28	1	8.0	-21	-34	-4.7	i
COC(=O)C1=C(C)N(C)C(=S)NC1c1ccccc1 (centres undefined)	-8	5	4.4	-7	-5	-1.3	27	14	-9.1	i
COc1ccc(/C=N/NC(=O)Cc2cc(OC)c(OC)cc2[N+](=O)[O-])cc1	-3	12	-3.2	-12	-9	-0.2	20	13	-3.6	i
COCCNC(=O)CCCC(=O)NCCOC	/	32	-0.2	-7	-2	/	/	/	/	/
COc1cc(NC(=O)c2ccccc2)c(OC)cc1Cl	-9	-3	0.6	-5	9	/	/	/	/	/
Cc1ccc(-c2nn(-c3ccccc3)cc2/C=N/O)cc1	6	-10	-1.5	19	-9	0.9	-51	-48	-13	i
C=CCN(CC(=O)Nc1cccnc1)S(=O)(=O)c1ccc(Cl)cc1	0	/	/	/	4	0.7	/	/	/	i
COc1cc(-n2c(=O)c3ccccc3n(Cc3cccnc3)c2=O)cc(OC)c1OC	8	9	-1.9	0	-4	/	/	/	/	/
Cn1nc(C(C)(C)C)cc1NC(=O)Nc1cc(Cl)cc(Cl)c1	55	4	?	30	-2	1.3	-20*	-6.2*	-0.2*	i
Cc1ccccc1OCC(=O)NN1C(=O)C2C3C=CC(O3)C2C1=O (centres undefined)	-19	-13	-0.3	1	-1	-2.3	11	13	1.5	i
CC1CC(CC(C)C(=O)Nc2nncs2)C(=O)O1 (centres undefined)	-3	-11	8.2	-16	-6	/	/	/	/	/
COc1ccc(C)cc1S(=O)(=O)N1CCCC(N2CCOCC2)C1 (centres undefined)	7	0	2.0	-3	/	0.1	7	6	1.8	i
COc1cccc(NC(=O)C(C)(C)C)c1	/	/	/	/	-3	-1.4	9	3	-8.0	i
COc1ccc(C(C(=O)NC2CCCCC2)N(Cc2cccnc2)C(=O)c2snc(C(N)=O)c2N)cc1 (centres undefined)	-13	13	-1.1	2	-2	4.4	7	5	1.6	i
COCCN(CCOC)S(=O)(=O)c1ccc(C(=O)Nc2nnc(C)o2)cc1	-35	4	0.6	-4	-1	/	/	/	/	/
CCCc1nnc(NC(=O)Cn2c(=O)sc3ccccc32)s1	-2	?	-2.1	-4	/	/	/	/	/	/
O=C(N/N=C/C=C/c1ccc2c(c1)OCO2)c1ccc([N+](=O)[O-])cc1	-6	4	0.3	-18	-5	/	/	/	/	/
CCOCCCNC(=S)N1C2CCC1CC(NC(=O)NC13CC4CC(CC(C4)C1)C3)C2 (centres undefined)	-4	15	0.8	-3	-3	/	/	/	/	/
O=C(N/N=C/C=C/c1ccccc1)C(O)c1ccccc1 (centres undefined)	-4	-6	-0.3	11	3	/	/	/	/	/
COC(=O)C(NS(=O)(=O)c1ccc(C)cc1)c1ccccc1 (centres undefined)	-2	?	-3.5	-5	-1	-1.9	6	5	-1.9	i
CCOC(=O)C(=CN=C(N)Nc1nc2ccccc2o1)C(=O)OCC	0	44	-1.8	-16	-4	-2.4	4	-3	2.2	i
CCOCCn1c(CN2CCOCC2)nc2c1c(=O)[nH]c(=O)n2C	23	0	4.5	-13	-4	-15	1	9	-7.8	i
Cc1ccc(-c2csc(=Nc3cccnc3)n2CCCn2ccnc2)cc1C	-11	-6	-1.3	64*	0	37*	-48	-71	-18	i
CC(Oc1ccc2c(-c3ccccc3)cc(=O)oc2c1)C(=O)N[C@H](Cc1c[nH]c2ccccc12)C(=O)O (some centres undefined)	20	1	1.0	-12	0	-1.3	-24*	-17*	-8.6*	i
O=C(N/N=C/c1ccc2cccc(OCc3ccccc3)c2n1)c1ccc(Cl)cc1	2	0	-2.0	37	-14	/	/	/	/	/
O=C(Nc1cccc2nsnc12)C1CC(=O)N(c2ccccc2)C1 (centres undefined)	-23	0	-3.6	1	-11	/	/	/	/	/
Cc1cccc(C(=O)NCC(=O)OCC(=O)N(C)CC(=O)Nc2ccccc2Cl)c1	-3	/	/	/	2	2.8	3	13	0.6	i
COCCNC(=O)c1ccccc1NC(=O)c1ccccc1SC	1	22	-1.8	-5	-7	-11	12	10	5.3	i
Cc1ccc(Oc2nc3ccccc3n3cccc23)cc1	/	-3	3.2	3	6	/	/	/	/	/
CCCS(=O)(=O)N1CCN(c2ccccc2F)CC1	-1	-10	3.3	-13	-5	/	/	/	/	/

By substructure, the compounds so far with a tert-butyl group
SMILES	ALR inh	Calb FLC	RanGTP-Impb inh	T cruzi repl	Beta apoptosis	MLL AF4-AF9 inh	rRNA inh HTS	rRNA inh HTS OD600	rRNA inh HTS RFP	FGF22 binding
Cn1nc(C(C)(C)C)cc1NC(=O)Nc1cc(Cl)cc(Cl)c1	55	4	?	30	-2	1.3	-20*	-6.2*	-0.2*	i
COc1cccc(NC(=O)C(C)(C)C)c1	/	/	/	/	-3	-1.4	9	3	-8.0	i

More records:
SMILES	ALR inh	Calb FLC	RanGTP-Impb inh	T cruzi repl	Beta apoptosis	MLL AF4-AF9 inh	rRNA inh HTS	rRNA inh HTS OD600	rRNA inh HTS RFP	FGF22 binding
Cc1[nH]c(=O)c(C#N)c2c1CSC(C)(C)C2	1	-12	0.4	-1	5	/	/	/	/	/
COc1ccc(C=O)cc1CN1CCCN(Cc2ccccc2F)S1(=O)=O	-7	5	4.7	4	1	0.6	-12	-17	1.6	i
Cn1c(C(=O)NCCN2CCOCC2)cc2c(=O)n3ccccc3nc21	2	30	7.6	-17	-4	-1.6	-5	1	-1.7	i
CN(C)/C(=N\S(=O)(=O)c1ccc(F)cc1)c1ccccc1	6	-10	5.2	-3	1	-6.5	-7	7	-1.0	i
COc1cc(OC)c(OC)cc1CN1CCCC(C(=O)c2ccccc2SC)C1 (centres undefined)	-28	-7	0.3	56*	4	7.4	12	8	-3.2	i
CCOc1cc(/C=N/NC(=O)c2cccs2)cc([N+](=O)[O-])c1O	/	-5	-2.3	14	/	2.6	5	-7	-6.5	i
CC(=O)c1cccc(NC(=O)C2CCCCC2)c1	-46	-5	3.4	19	4	/	/	/	/	/
Cc1ccc2nc(NC(=O)COC(=O)CSc3nc(C)cc(C)n3)sc2c1	-2	-9	5.6	9	-2	/	/	/	/	/
Cc1ccc(-c2nc(CS(=O)(=O)CC(=O)N3CCN(C)CC3)c(C)o2)cc1	45	7	158*	23	6	-6.2	1	8	-0.1	i
O=C(OCc1c(-c2ccccc2)ncc2ccccc12)c1ccc(C(F)(F)F)cc1	1	/	/	/	6	-1.9	3	2	-2.0	i
